# Vaccinia Venus: qHTS for Stage-Specific Inhibitors of Vaccinia Orthopoxvirus: Venus Reporter Primary qHTS; Potency, µM (highest dose often 36.5 µM), without a hit: top-dose activity change, negative = inhibition, usual class: inhibitors; 330,000 compounds, 0.46% hits; Vaccinia virus Venus reporter expression, fluorescence; active means well fitted inhibition curve with a large enough effect; inconclusive means small, poorly fitted or top-dose-only effect; inactive means no such curve, though single readings can be large or run the other way; tested in A549 cells; further: nearly all actives have a fitted effect of over 30% in size; inactives centre near -10
# VACV mCherry inh: qHTS for Stage-Specific Inhibitors of Vaccinia Orthopoxvirus: mCherry Reporter Primary qHTS | Potency, µM (series often up to 36.5 µM), for the others: at the highest dose activity change, negative = inhibition, actives largely listed as inhibitors | Vaccinia virus mCherry reporter infection, fluorescence; about a quarter of the inactives have no number | 310,000 compounds, 0.63% hits; active = well fitted inhibition curve with a large enough effect; inconclusive = small, poorly fitted or top-dose-only effect; inactive = no such curve, though single readings can be large or run the other way; tested in A549 cells; further: nearly all actives have a fitted effect of over 35% in size; inactives centre near -10
# The depositor's hits bear a star; i = inactive; u = inconclusive; x = no result given; [ ] = dose if it differs, or a comment. On the % scale 0 is the no-effect control and ±100 the full control effect; potency means the concentration at half of the fitted maximal effect.
SMILES,Vaccinia Venus,VACV mCherry inh
CCOc1ccc(Cl)cc1-c1cc(C(=O)NCCOC)[nH]n1,1%,-2%
COCCNC(=O)c1onc(CSc2ccccc2)c1C(=O)NCCOC,0%,i
O=C1CCCCC1Sc1nnc(-c2ccc3c(c2)OCO3)o1 (configuration not stated),-6%,-9%
Cc1ccc(CNC(=O)c2ccc(N3CCC4(CC3)CC(c3ccccc3)=NO4)c(NC(=O)c3ccccc3)c2)cc1,-15%,i
CC(C)Oc1ccc(Br)cc1/C=N\NC(N)=S,7.9µM*,5.6µM*
Cc1cccc(NC(=O)Cn2c(O)c(N=NC(=O)c3ccncc3)c3ccccc32)c1,-7%,-3%
C=CCNC(=O)c1ccsc1N,5%,-17%
NC(=O)CC[C@@H]1NC(=O)[C@@H]2CCCN2C(=O)c2cc([N+](=O)[O-])cc(I)c2NCCC[C@@H](C(=O)NC(CC(=O)O)C(N)=O)NC1=O (some centres not stated),-8%,-10%
CC(C)(C)c1ccc(CC(=O)N2CCC2(C)C(=O)Nc2cccc3c2CCCC3)cc1 (configuration not stated),-8%,4%
COc1ccc(N2CCN(C(=O)CN(C3CCCCC3)S(C)(=O)=O)CC2)cc1,-4%,1%
CN1C(C(=O)NCCc2cccs2)CC2Cn3c(nc4cc5ccccc5cc43)C21 (configuration not stated),-25%,i
COC(=O)CN1C(=O)[C@H]2[C@@H](/C=C/c3ccccc3)N3C(=O)CN(CC4CC4)C(=O)[C@@]3(Cc3ccccc3)[C@H]2C1=O,-13%,-3%
COc1ccc(/C=N/NC(=O)c2snnc2C)c(OC)c1OC,-15%,i
CCCCCNCC(=O)Nc1cccc(C(=O)Nc2cccc(C(F)(F)F)c2)c1,u,u
Cc1cc(C)n(CC(C)NC(=O)c2cc(COc3c(F)cccc3F)on2)n1 (configuration not stated),-7%,-19%
COc1c(C=NNC(N)=O)c(OC)c(OC)c2c1CCO2,8%,-8%
C=CCOc1ccc(/C=C2\SC(=S)N(N3CCOCC3)C2=O)cc1,1%[7.34 µM],-1%[7.34 µM]
CCS(=O)(=O)N1CCCC(C(=O)NCc2ccccc2Cl)C1 (configuration not stated),-23%,x
COc1ccc(CNC(=O)c2nc(Cn3nc(C)c(Br)c3C)no2)cc1OC,-1%,2%
CCN(CC)C(=O)/C=C/c1ccccc1,-10%,i
COc1ccc(-n2nc(C(=O)NCc3ccc(F)cc3Cl)c3c4ccccc4n(C)c3c2=O)cc1Cl,6%,-12%
CCCCc1nnc(SCC(=O)Nc2nccs2)n1C,-12%,-11%
O=C(NCc1ccncc1)C1CCN(S(=O)(=O)c2cc(Cl)ccc2Cl)CC1,33%[activator],-7%
N#Cc1cccc(-c2csc(C(O)c3ccco3)n2)c1 (configuration not stated),5%,11%
CCOc1ccc2nc(SCC(=O)c3ccccc3)sc2c1,-4%,-17%
O=C(Nc1ccc(F)cc1)Nc1ccc(N2CCCC2)c(S(=O)(=O)Nc2ccccc2Cl)c1,11µM*,11µM*
O=C(CCCCC(=O)OCC1CCCO1)OCC1CCCO1 (configuration not stated),0%,i
COc1ccccc1N1CCN(C(=O)Cn2nnc(-c3ccncc3)n2)CC1,-7%,-13%
CCN(C[C@H]1N[C@@](Cc2ccccc2)(C(=O)OC)[C@H]2C(=O)N(C)C(=O)[C@@H]12)C(=O)c1ccc(C(C)(C)C)cc1,-12%,-19%
CCCCCCn1cc(CN2CC(N(C)CC)CS2(=O)=O)nn1 (configuration not stated),-2%,-7%
Cc1cc(/C=C(\C#N)C(=O)Nc2ccccc2)c(C)n1-c1ccc(F)cc1,-15%,-1%
Cc1ccccc1-c1noc(CCC(=O)Nc2cccc(C)c2C)n1,-1%,-11%
CN(C)S(=O)(=O)c1ccc(-c2ccccc2)cc1,-7%,x
O=c1[nH]ncc(N/N=C\c2cccs2)c1Cl,-23%,u
Cc1c(NS(=O)(=O)c2ccc3c(c2)n(C)c(=O)n3C)c(=O)n(-c2ccccc2)n1C,-13%,x
CCCCC#Cc1cncc(C(=O)N/N=C/c2ccccc2)c1,-13%,-11%
COc1ccccc1CN1CC(C(=O)NCCN2CCOC2=O)CCC1=O (configuration not stated),-3%,i
N#CCC(=O)N/N=C/c1cn(Cc2ccc3ccccc3c2)c2ccccc12,-16%,-18%
N#Cc1cccc(NC(=O)Cc2ccccc2)c1,-15%,i
Clc1ccc(Nc2nc(Nc3ccc(Cl)cc3)nc(N3CCOCC3)n2)cc1,-22%,16%
Cc1c(-n2c(O)c(C3=c4ccccc4=NC3=O)sc2=O)c(=O)n(-c2ccccc2)n1C,-9%,-1%
CCOC(=O)CNC(=O)Nc1cc(C(=O)NCc2ccc(C(C)C)cc2)ccc1N1CCCC1,-11%,-13%
COc1ccc([N+](=O)[O-])cc1NC(=O)C1CCCN1S(=O)(=O)c1cccs1 (configuration not stated),-6%,-18%
COc1ccc(Cl)cc1C(=O)NNC(=O)CCNC(C)=O,-13%,i
Cn1c(=O)c2c3c(sc2n2c(SCC(N)=O)nnc12)CC(C(C)(C)C)CC3 (configuration not stated),u,u

# Entries from the list above with a cyano group:
SMILES,Vaccinia Venus,VACV mCherry inh
N#Cc1cccc(-c2csc(C(O)c3ccco3)n2)c1 (configuration not stated),5%,11%
Cc1cc(/C=C(\C#N)C(=O)Nc2ccccc2)c(C)n1-c1ccc(F)cc1,-15%,-1%
N#CCC(=O)N/N=C/c1cn(Cc2ccc3ccccc3c2)c2ccccc12,-16%,-18%
N#Cc1cccc(NC(=O)Cc2ccccc2)c1,-15%,i

# Compounds listed so far that contain a Cl atom:
SMILES,Vaccinia Venus,VACV mCherry inh
CCOc1ccc(Cl)cc1-c1cc(C(=O)NCCOC)[nH]n1,1%,-2%
CCS(=O)(=O)N1CCCC(C(=O)NCc2ccccc2Cl)C1 (configuration not stated),-23%,x
COc1ccc(-n2nc(C(=O)NCc3ccc(F)cc3Cl)c3c4ccccc4n(C)c3c2=O)cc1Cl,6%,-12%
O=C(NCc1ccncc1)C1CCN(S(=O)(=O)c2cc(Cl)ccc2Cl)CC1,33%[activator],-7%
O=C(Nc1ccc(F)cc1)Nc1ccc(N2CCCC2)c(S(=O)(=O)Nc2ccccc2Cl)c1,11µM*,11µM*
O=c1[nH]ncc(N/N=C\c2cccs2)c1Cl,-23%,u
Clc1ccc(Nc2nc(Nc3ccc(Cl)cc3)nc(N3CCOCC3)n2)cc1,-22%,16%
COc1ccc(Cl)cc1C(=O)NNC(=O)CCNC(C)=O,-13%,i

# Carrying on:
SMILES,Vaccinia Venus,VACV mCherry inh
O=C(C1COc2ccccc2O1)N1CCN(c2ccccc2F)CC1 (configuration not stated),2%,i
COc1ccc(C2C(C#N)=C(N)OC3=C2C(=O)CC(C)(C)C3)cc1Cn1nc(C)c([N+](=O)[O-])c1C (configuration not stated),-16%,i
O=C(CNC(=O)c1ccccc1Cl)OCc1cc(=O)n2nc(C3CC3)sc2n1,-7%,-5%
O=C(CSc1nc2c([nH]c3ccccc32)c(=O)n1-c1ccc(Cl)cc1)NC1CCCCC1,u,u
CCC(=O)N1CCN(c2ccc(NC(=O)c3cc4ccccc4o3)cc2)CC1,-28%,x
CC(=O)NC1CCSC1=O (configuration not stated),-2%,-9%
Cc1cc(C)nc(NC(=O)NC(=O)c2ccccc2)n1,1%,-23%
COCCNCC(=O)C12CC3CC(CC(C3)C1)C2,-1%,i
Nc1ccccc1Oc1ccc2ccccc2c1,u,u
CCCCCCCCN1C(=O)[C@H](CC(=O)NCCCCc2ccccc2)C[C@@]2(C(=O)OCC)CCCC=C12,-17%,1%
O=C1C=C(c2ccccc2C(F)(F)F)C[C@@H](c2ccc3c(c2)OCO3)C1,-12%,-4%
CCCN(Cc1nnc(-c2ccccc2Cl)o1)C(=O)c1ccc(C)c(S(=O)(=O)N2CCOCC2)c1,-8%,-15%
O=C(COC(=O)CCC(=O)c1ccc(F)cc1)NCCc1ccccc1,8%,i
Nc1ccc(S(=O)(=O)c2cccc(N)c2)cc1,-1%,-2%
Cc1ccc(-c2noc(CSc3nnc(C)n3-c3ccc(F)cc3)n2)cc1,-6%,-6%
COCCn1c(SCC(=O)NC2CCCC(C)C2C)nc2ccccc2c1=O (configuration not stated),-11%,-22%
COC(=O)C[C@@H]1C[C@H]2c3cc(NC(=O)Nc4ccccc4F)ccc3O[C@H]2[C@H](CO)O1,8%,-8%
CC1=C(C(=O)OCc2ccccc2)C(c2ccc(Cl)cc2Cl)NC(=O)N1CCCC(=O)O (configuration not stated),1%,-3%
O=C(Nc1cccc(C(=O)N2CCCCC2)c1)C1CCCC1,-14%,i
O=C(CCC1CCCN(C(=O)c2cc(C3CC3)[nH]n2)C1)N1CCN(c2ccccn2)CC1 (configuration not stated),-8%,-10%
Nc1ccc(C(=O)OCc2nc3ccccc3[nH]2)cc1,3%,x
COc1ccc2nc3oc(C(=O)N4CCC(C(N)=O)CC4)cc3cc2c1,6%,3%
CCC1(C)Cc2c(sc3nc(SCC(=O)c4ccccc4)[nH]c(=O)c23)CO1 (configuration not stated),-9%,5%
COC(=O)[C@@]1(C)[C@H]2C(=O)N(C)C(=O)[C@H]2[C@H]2CN=C(SCc3ccc(C#N)cc3)N21,7%,i
CCn1c(=O)c2cc(C(=O)NCCCOC)sc2c2ccccc21,-19%,-20%
COC(=O)c1[nH]c2cccc(C)c2c1NC(=O)CN1CCCc2ccccc21,-1%,x
Cc1c(Br)c(=O)[nH]c(=O)n1COCc1ccccc1,-3%,-13%
Cc1cc(C(=O)N/N=C/c2ccco2)c2ccccc2n1,-21%,-23%
Nc1ncnc2c1ncn2[C@@H]1O[C@H](C(=O)NC2CC2)[C@@H](O)[C@H]1O,-2%,-12%
CC(C)CN(C(=O)CSc1nc(N)cc(N)n1)C1CCS(=O)(=O)C1 (configuration not stated),-13%,-13%
O=[N+]([O-])c1ccc(Nc2ccc(F)cc2)nc1,-10%,-13%
CCN(Cc1nc(-c2ccc(OC)cc2)oc1C)S(=O)(=O)c1ccc(C)cc1,-13%,-18%
O=C(NCC1CC1)c1cccc2c1C(=O)c1ccc(N3CCCC3)cc1S2(=O)=O,7%,i
Cc1nc2ccc(Cc3ccc4nc(C)[nH]c4c3)cc2[nH]1,-24%,x
O=C(N/N=C/c1cccc(O)c1)c1ccc(NC(=O)C2CCCCC2)cc1,-6%,i
Nc1ccc(C(=O)OCC(=O)N2CCc3ccccc3C2)cc1[N+](=O)[O-],-14%,-3%
CCOc1ccc(C(=O)NCC(=O)NCCCSc2ccccc2)cc1OCC,-3%,-13%
Cc1ccc(N(C(=O)c2snc(C(N)=O)c2N)C(C(=O)NCC2CCCO2)c2ccc(C)o2)c(C)c1 (configuration not stated),-3%,-3%
Cc1ccccc1N1CCN(C(=S)c2ccc(-c3ccc([N+](=O)[O-])cc3)o2)CC1,-14%,-3%
C=CCOc1ccc2ccccc2c1/C=N/O,-10%,x
CN(C)S(=O)(=O)c1cccc(C(=O)OCC(=O)c2ccc3c(c2)NC(=O)CO3)c1,-3%,i
CC(C)(Oc1ccc(Cl)cc1)C(=O)NC1CCN(Cc2ccccc2)CC1,-6%,-29%
COc1cc2cc(C(=O)O)n(C)c2c(OC)c1OC,-3%,-13%
CCCOC(=O)Cc1n[nH]c(=O)[nH]c1=O,3%,-7%

# Source: PubChem (National Center for Advancing Translational Sciences (NCATS))
